Bioassay records deposited in PubChem by National Center for Advancing Translational Sciences (NCATS).
gsp ag: agonists of gsp mutant (McCune-Albright syndrome) | 340,000 compounds, 0.13% hits | AID 624287 | gsp mutant cells, cAMP HTRF, 30 min; control for the full effect not named in the record | Potency, µM (doses to about 76.9 µM), for the others: top-dose activation (cAMP increase), usual class: activators; active = well fitted activation curve with a large enough effect; inconclusive = small, poorly fitted or top-dose-only effect, or another doubt; inactive = no such curve, though single readings can be large or run the other way; cell line not stated here;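 note: phosphodiesterase inhibitor Ro 20-1724 added with compounds to block cAMP breakdown; potency is the fitted concentration of half-maximal effect; nearly all actives have a fitted effect of over 60% in size; about a fifth of the inactives were tested at one dose only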
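Cells in DMEM/10% FBS with G418 were pretreated with compounds in DMSO plus […] (300 uM stock) for 30 min at 37C. cAMP was measured by HTRF (cAMP-d2 plus anti-cAMP antibody-K) after 30 min at room temperature.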
TRPML1 blocker: human mucolipin-1 channel inhibition; activity change, negative = inhibition, % (test concentration not listed); 390,000 compounds, 0.02% hits; Q9GZU1; TRPML1-inducible cells, Ca2+ dye fluorescence, FDSS; hits give low values; inhibition of EC80 agonist-evoked calcium signal; in the data active means activity change below about -50%; inconclusive means about -30% to -50%; inactive means above about -30%;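 note: stimulus is agonist 54-4 at its EC80 concentration; % is set by controls: 0 for no effect and ±100 for the full control effect; compound concentration not given in the record; the text of the record puts the active cut at -80%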
Target sequence (Q9GZU1 whole entry, looked up): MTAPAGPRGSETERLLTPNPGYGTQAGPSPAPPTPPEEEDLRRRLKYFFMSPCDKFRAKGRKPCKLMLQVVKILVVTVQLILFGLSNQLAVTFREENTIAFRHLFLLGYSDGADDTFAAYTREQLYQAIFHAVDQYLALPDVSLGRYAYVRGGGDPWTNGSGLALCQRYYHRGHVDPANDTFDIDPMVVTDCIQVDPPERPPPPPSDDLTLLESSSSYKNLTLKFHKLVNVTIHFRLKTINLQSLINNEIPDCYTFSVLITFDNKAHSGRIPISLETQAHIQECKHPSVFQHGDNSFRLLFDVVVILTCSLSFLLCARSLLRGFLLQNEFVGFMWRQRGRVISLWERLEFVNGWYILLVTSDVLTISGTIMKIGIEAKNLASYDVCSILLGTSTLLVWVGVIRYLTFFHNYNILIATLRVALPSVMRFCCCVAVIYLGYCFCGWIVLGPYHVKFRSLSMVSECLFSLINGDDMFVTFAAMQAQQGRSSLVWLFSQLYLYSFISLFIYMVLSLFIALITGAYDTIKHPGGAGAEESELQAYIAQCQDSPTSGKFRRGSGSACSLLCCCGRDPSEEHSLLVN
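TRPML1-DL cells, Tet-induced overnight (~16 h, 37 °C) at 1,500 cells/well, were loaded with Ca8 no-wash dye plus quencher for 45-90 min at room temperature. Compounds were pinned during FDSS kinetic reading; agonist 54-4 at EC80 (4 uM final) then added.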
TRPV1 PAM: potentiators of human vanilloid receptor 1 (TRPV1). 320,000 compounds, 0.02% hits. potentiation, % at 8.33 µM. AID 540277. TRPV1-expressing cells, Fluo-8 calcium influx, capsaicin EC20 potentiation; host cell line not named in the record; control for the full effect not named in the record; active means potentiation above 80%; inconclusive means 30% to 80%; inactive means below 30%; note: 0% is about no effect
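Fluo-8 calcium influx in TRPV1-expressing cells, kinetic read (ex 480/em 520 nm). Compound added and read 3 min for agonist activity, followed by capsaicin at EC20 final and 2 min further read for enhancement.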
ClpP mod: qHTS Assay for Activators of ClpP; ATP-dependent Clp protease proteolytic subunit (Bacillus subtilis (strain 168)), P80244; purified B. subtilis ClpP, FRET peptide cleavage, 20 min; Potency, µM (titrated, usually from 57.5 µM), without a hit: at the top dose activity change, negative = active; 340,000 compounds, 1.9% hits; AID 651965, 2013; active = well fitted falling curve with a large enough effect; inconclusive = small, poorly fitted or top-dose-only effect; inactive = no such curve, though single readings can be large or run the other way; note: potency is the fitted concentration of half-maximal effect; the source files actives as falling curves though it sought activators and does not explain the sign; nearly all actives have a fitted effect of over 65% in size; many hits overshoot -100%
Target sequence (P80244 whole entry, looked up): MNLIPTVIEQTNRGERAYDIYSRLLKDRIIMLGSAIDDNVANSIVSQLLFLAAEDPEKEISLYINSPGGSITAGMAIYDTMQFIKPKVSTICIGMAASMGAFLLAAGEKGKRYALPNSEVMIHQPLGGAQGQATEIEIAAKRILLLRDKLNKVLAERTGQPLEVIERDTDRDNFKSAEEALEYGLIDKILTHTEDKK
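Purified B. subtilis ClpP, 10 microg/mL final in Tris/HCl pH8 with KCl, BSA, glycerol and Tween-20, cleaved an Abz/nitrotyrosine-quenched decapeptide. Fluorescence (ex 320, em 430) was read at 0 and 20 min at room temperature. Delta was normalized to 5.8 microM ADEP and DMSO/no-enzyme controls.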
Sfp PPTase inh: inhibitors of Bacillus subtilis Sfp phosphopantetheinyl transferase; Biochemical Sfp PPTase activity, qHTS; Potency, µM, for the others: max response, negative = inhibition, actives largely listed as inhibitors; 310,000 compounds, 3.5% hits; AID 1490; active = well fitted inhibition curve with a large enough effect; inconclusive = small, poorly fitted or top-dose-only effect, or another doubt; inactive = no such curve, though single readings can be large or run the other way;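 note: the enzyme is Sfp with the accession as filed and its product quenches rhodamine fluorescence; potency is the fitted concentration of half-maximal effect; 0% = enzyme reaction without inhibitor and -100% = no enzyme wells; top concentration of the series not given in the record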
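Sfp 15 nM + cpd, 15 min RT; start w/ rhodamine-CoA 5 uM, BHQ-2-YbbR 12.5 uM (final); 50 mM Hepes pH 7.6, 10 mM MgCl2, 0.01% NP-40, 0.01% BSA; read 525/598 nm at 0 and 30 min.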
Menin-MLL FL inh: displaces fluorescein MLL peptide from human menin | Fluorescence polarization, fluorescein-MLL peptide displacement from menin | FP activity change, % at 61.4 µM | 290,000 tested, under 10 active; inconclusive = falling polarisation curve, or a change in total fluorescence; inactive = total fluorescence flat and polarisation flat or rising; no compound was filed as active; the % refers to the polarisation; negative = inhibition;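 note: % of control where 0% means no effect; inhibitors lower the polarisation; unlabelled MLL peptide was the positive control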
gsp antagonist: gsp mutant antagonism. 340,000 compounds, 0.4% hits. gsp-mutant cells, cAMP HTRF, 30 min; control for the full effect not named in the record. Potency, µM (top dose mostly 76.9 µM), inactives show at the highest dose activity change, negative = inhibition, actives largely listed as inhibitors. AID 624288; active = falling curve of any shape with a large fitted effect; inconclusive = falling curve, mostly with a smaller effect; inactive = flat or rising curve; cell line not stated here;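 note: intracellular cAMP measured with PDE inhibitor Ro 20-1724 present during compound exposure; potency is the fitted concentration of half-maximal effect; % is set by controls: 0 for no effect and ±100 for the full control effect; nearly all actives have a fitted effect of over 65% in size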
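HTRF cAMP measurement after 30 min RT detection following 30 min, 37C compound treatment alongside […] (added as 300 uM solution) in G418-selected cells seeded at 2000/well and grown 16–24 h.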
* hit, by the source's call; ? = inconclusive; / = not tested or not shown; [ ] = another dose, or the depositor's remark.

SMILES	gsp ag	TRPML1 blocker	TRPV1 PAM	ClpP mod	Sfp PPTase inh	Menin-MLL FL inh	gsp antagonist
CC1=CC(C)(C)Nc2ccc(OC(=O)C(Cc3ccccc3)N3C(=O)c4ccccc4C3=O)cc21 (configuration not stated)	19%	-7	-9	-5.8%	29%	0.0	3%
CCSc1n[nH]c(=S)s1	-17%	8	2	/	-76%	-2.1	3%
CCC1CCC/C1=N\NC(=O)c1ccccc1Cl (configuration not stated)	10%[15.4 µM]	5	/	/	/	/	3%
O=C(N/N=C1\CCCc2ccccc21)c1ccccc1[N+](=O)[O-]	-27%	10	2	1.9%	-6%	1.2	-15%
CC1CCCC(NC(=O)COC(=O)/C=C/c2ccc3c(c2)OCO3)C1C (configuration not stated)	19%[15.4 µM]	13	3	5.0%	21%	2.4	-3%
O=C(NCc1ccccc1Cl)C1CCC(=O)N(CC2CCCCC2)C1 (configuration not stated)	-39%[inhibitor]	23	-7	-0.7%	5%	/	9%
O=C(O)C1CCCCC1C(=O)Nc1ccc(S(=O)(=O)N2CCCCCC2)cc1 (configuration not stated)	10%	22	11	/	21%	/	1%
Cc1ccc(C)c(NS(=O)(=O)c2ccc(-c3coc(C)n3)cc2)c1	1%	-12	-3	-1.6%	-2%	-0.7	-5%
CCn1cnc2sc(C(=O)Oc3ccc(Br)cc3)c(C)c2c1=O	-12%[15.4 µM]	-4	-14	/	9%	-8.6	4%
Cc1cccc(C(=O)NC(=S)NNC(=O)Cc2ccccc2)c1	20%[15.4 µM]	-22	1	/	13%	3.3	5%
Cc1ccc(C(=O)Nc2nnc(COc3ccccc3)s2)cc1	?	5	9	/	8%	-7.3	27%
CCOC(=O)C1=C(C)Nc2ccccc2S1	-27%[15.4 µM]	5	8	/	50µM*	0.3	2%
O=C(N/N=C/c1ccc(O)c(O)c1)C1c2ccccc2Oc2ccccc21	-9%	-12	-8	-6.2%	-19%	5.6	3%[15.4 µM]
CC(C)C(C(=O)Nc1ccc(S(N)(=O)=O)cc1)N1C(=O)c2ccccc2C1=O (configuration not stated)	-11%[15.4 µM]	6	6	25%	9%	1.6	9%
CC(Oc1ccc(Br)cc1)C(=O)NC1CCCCCC1 (configuration not stated)	19%	39	6	-1.4%	/	/	1%
COc1ccc(N2CCN(S(=O)(=O)CCNC(=O)c3ccc4c(c3)OCO4)CC2)cc1	4%[15.4 µM]	-11	2	-0.7%	/	/	2%
CC(C)=NNC1=NC(C)(C)Cc2ccccc21	-9%[15.4 µM]	14	-4	/	5%	-2.0	10%
CCCn1c(CCC(=O)O)ccc1-c1ccc(OC)cc1	-2%	-4	21	28µM*	2%	?	-1%
COc1ccc(-c2oc3ncnc(NCCCO)c3c2-c2ccc(OC)cc2)cc1	0%[15.4 µM]	9	-10	0.8%	-13%	3.3	?
COc1ccc(S(=O)(=O)N2CCOCC2)cc1NC(=O)COc1ccc2c(C)cc(=O)oc2c1	26%	41	/	3.9%	/	/	-4%
Cc1ccc(S(=O)(=O)N(C)CC(=O)Nc2ccncc2)cc1	-35%[inhibitor]	-3	-15	1.6%	13%	2.9	-8%
O=S(=O)(NCC(c1ccc2c(c1)OCO2)N1CCOCC1)c1ccc(Br)cc1 (configuration not stated)	-2%[15.4 µM]	10	13	/	/	/	-5%
CCN1C(=O)CSC1=Nc1ccc(C(=O)OC)cc1	2%	8	/	-0.5%	/	/	/
CC(=O)NC(CC(C)C)C(=O)O (configuration not stated)	/	3	/	-1.4%	/	/	3%
Cc1ccc(-n2c(=O)[nH]c3cc(C(=O)NC4CCN(Cc5ccccc5)CC4)ccc3c2=O)cc1	2%	-4	10	-5.7%	6%	0.9	2%
COC(=O)c1ccc(CSc2cc(C)c3cc(C)cc(C)c3n2)o1	-38%[inhibitor]	56	-8	3.1%	14µM*	?	-18%
COc1cccc(CN2CCCC(C(=O)N3CCCCC3)C2)c1OC (configuration not stated)	-29%	-25	18	-2.7%	?	2.0	12%
O=C(Cn1c(=O)oc2ccccc21)NCCc1ccccc1	-10%[15.4 µM]	-2	-12	-4.5%	6%	3.2	5%
Cc1ccc(C)c(N2C(=O)c3ccc(C(=O)OCC(=O)c4c(N)n(C)c(=O)n(C)c4=O)cc3C2=O)c1	0%	7	6	-1.9%	-3%	4.4	1%
COC(=O)c1cc(S(=O)(=O)Nc2ccc(C)cn2)c[nH]1	-43%	15	-2	4.6%	15%	2.9	-1%

Sfp PPTase inh, hit marks shown above
canonical_smiles	gsp ag	TRPML1 blocker	Sfp PPTase inh	Menin-MLL FL inh
CCOC(=O)C1=C(C)Nc2ccccc2S1	-27%[15.4 µM]	5	50µM*	0.3
COC(=O)c1ccc(CSc2cc(C)c3cc(C)cc(C)c3n2)o1	-38%[inhibitor]	56	14µM*	?

The list goes on:
SMILES	gsp ag	TRPML1 blocker	TRPV1 PAM	ClpP mod	Sfp PPTase inh	Menin-MLL FL inh	gsp antagonist
COc1cc(/C=C2\SC(c3ccc(C)cc3)=NC2=O)cc(OC)c1O	-15%	-13	1	0.9%	11µM*	?	-15%
CCCOc1ccc(/C(O)=C2\C(=O)C(=O)N(CCCN(C)C)C23C(=O)N(C)c2ccccc23)cc1 (configuration not stated)	/	/	4	/	-25%	3.1	/
COc1ccc(NC(=O)c2cccc(N3C(=O)C4C5C=CC(C5)C4C3=O)c2)cc1Cl (configuration not stated)	29%[15.4 µM]	4	24	/	-6%	/	9%
COc1cccc(OCc2nnc(SCC(=O)N3c4ccccc4Sc4ccc(Cl)cc43)o2)c1	7%	-8	9	0.6%	11%	1.0	8%
COc1cccc(CN2CC(C(=O)NCCc3cn4cccnc4n3)CCC2=O)c1 (configuration not stated)	0%	7	/	4.2%	/	/	/
COc1ccc(NC(=S)N(CCC(C)C)C2CCN(C(C)C)CC2)cc1	23%	/	-14	0.5%	-3%	-5.1	1%
CC(=O)CCc1ccc(OCCCCN2CCC(Cc3ccccc3)CC2)cc1	20%[15.4 µM]	?	13	/	?	-2.1	-38%
COc1ccc(CCN2CC(C(=O)NCC(=O)Nc3ccc(F)c(F)c3)CC2=O)cc1OC (configuration not stated)	0%[15.4 µM]	19	7	-2.4%	/	/	10%
COC(C(=O)Nc1ccnn1C1CCN(C(=O)c2ccc(C=O)cc2)CC1)c1ccccc1 (configuration not stated)	-18%	15	23	-1.5%	13%	0.8	-8%
Cc1nc(-c2ccc(Cl)cc2)sc1C1(C)CC(c2cccc([N+](=O)[O-])c2)=NO1 (configuration not stated)	-3%	4	-14	0.5%	18%	4.8	9%
COc1ccc(CN2CCN(CCCc3ccccc3)C(CCO)C2)c(O)c1 (configuration not stated)	-4%	-6	6	/	1%	-4.0	3%
CCc1ccc(Nc2n[n+](-c3ccccc3)c(-c3cc(OC)c(OC)cc3Br)s2)cc1	/	7	12	0.9%	-8%	-0.4	-15%
O=C(CCN1C(=O)C2CC=CCC2C1=O)N1CCN(c2ccccn2)CC1 (configuration not stated)	-17%	0	/	?	-6%	3.5	8%
CC1=C(C#N)C(c2ccccc2)C2=C(N1)c1ccccc1C2=O (configuration not stated)	?	6	-2	-0.6%	9%	6.8	15%
S=C(Nc1ccc(Cl)cc1Cl)N1CCCC1	-16%	-4	16	-0.8%	6%	/	12%
CC(Nc1nc(N2CCCCC2)nc2ccccc12)c1ccccc1 (configuration not stated)	13%	34	-1	28µM*	?	2.7	-11%
COc1ccccc1NC(=O)c1ccccc1NC(=O)c1cccs1	?	-26	0	/	-4%	0.9	-16%
CCOC(=O)N1CCC2(CC1)NCCc1c2[nH]c2ccccc12	16%	2	-1	/	10%	1.6	8%
O=C(CNCCC1=CCCCC1)Nc1ccc(N2CCCCCC2)cc1	16%	-25	-19	-0.4%	16µM*	3.5	7%
COCCCNC(=O)c1nc2c(nnn2Cc2cc(C)ccc2C)c(=O)[nH]1	1%	-2	-2	-1.2%	-14%	9.0	-18%
COC(=O)c1ccccc1NC(=O)CN1CCN(C23CC4CC(CC(C4)C2)C3)CC1	-7%	-11	6	-2.1%	10%	4.1	5%
CCOc1ccc(S(=O)(=O)N2CCN(Cc3ccccc3)CC2)cc1	-13%[15.4 µM]	7	6	15%	14%	5.4	-8%
COc1cc(OC)c(NC(C)C(=O)N2CCCC2)cc1Cl (configuration not stated)	-2%	?	-3	-2.9%	20%	0.7	-10%
CCCCOc1ccccc1C1NC(=O)NC(C)=C1C(=O)OCc1ccco1 (configuration not stated)	-5%	-8	-9	0.4%	-8%	3.3	0%
Cc1cc(C)cc(NC(=O)Nc2ccc3ccccc3n2)c1	-2%[15.4 µM]	-11	8	/	4%	6.1	15%
CN1C(=O)C(O)(CC(=O)c2ccc3c(c2)OCO3)c2ccccc21 (configuration not stated)	-17%	-3	-7	-8.3%	3%	-3.4	0%
Cc1ccc(-n2c(=S)sc3c(=O)n(-c4ccccc4F)c(SCC(=O)O)nc32)cc1C	3%	4	4	-3.0%	12%	-1.2	-8%

Another view of some results above.
| SMILES | gsp ag | TRPML1 blocker | TRPV1 PAM | ClpP mod | Sfp PPTase inh | Menin-MLL FL inh | gsp antagonist |
| --- | --- | --- | --- | --- | --- | --- | --- |
| Cc1ccc(-n2c(=S)sc3c(=O)n(-c4ccccc4F)c(SCC(=O)O)nc32)cc1C | 3% | 4 | 4 | -3.0% | 12% | -1.2 | -8% |
| COC(=O)c1ccccc1NC(=O)CN1CCN(C23CC4CC(CC(C4)C2)C3)CC1 | -7% | -11 | 6 | -2.1% | 10% | 4.1 | 5% |
